Bioassay records: PubChem, ICCB-Longwood Screening Facility, Harvard Medical School
Sa growth 42C: S. aureus growth inhibition at 42 and 30 °C, primary screen, LtaS inhibitor project, RN4220, two temperatures; OD600, 20 h, 42 °C; stronger effect = lower value; relative growth, % (concentration not given with the values); hit rate 0.53% among 170,000; AID 720641, 2013;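 active = growth at 42 °C up to 50% and 20 or more points under that at 30 °C, or under 10% at both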;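 also: 300 nL library stock went into each well; scaled to the means of positive and negative controls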
HCMV UL50-53 inh: inhibitors of HCMV UL50-UL53 interaction, biochemical, HTRF; inhibition, % (test concentration not listed); hit rate 0.15% among 190,000; normalized percent inhibition; HCMV UL50-UL53 nuclear egress complex (human cytomegalovirus);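 active = both replicates at 50% or more, plus weaker picks with an unusually low signal ratio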;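 also: stock transfer was 100 nL into about 20 µL; 0% = negative control wells and 100% = wells with untagged competitor protein; inactives centre near -12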
GIV-Gai inh: inhibitors of GIV peptide binding to Galpha-i3, primary screen, biochemical, fluorescence polarization, FITC-GIV GBA peptide, rat Galphai3; hit rate 0.42% among 210,000; percent of control (FP), % (test concentration not listed); 90 min; stronger effect = lower value; scaled: aluminum fluoride 0%, vehicle 100%;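 active = replicate mean at 85% of control or lower, very high polarization wells dropped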;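 also: wells of about 15 µL received 100 nL stock; the first replicate is given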
Target sequence (P08753 whole entry, looked up): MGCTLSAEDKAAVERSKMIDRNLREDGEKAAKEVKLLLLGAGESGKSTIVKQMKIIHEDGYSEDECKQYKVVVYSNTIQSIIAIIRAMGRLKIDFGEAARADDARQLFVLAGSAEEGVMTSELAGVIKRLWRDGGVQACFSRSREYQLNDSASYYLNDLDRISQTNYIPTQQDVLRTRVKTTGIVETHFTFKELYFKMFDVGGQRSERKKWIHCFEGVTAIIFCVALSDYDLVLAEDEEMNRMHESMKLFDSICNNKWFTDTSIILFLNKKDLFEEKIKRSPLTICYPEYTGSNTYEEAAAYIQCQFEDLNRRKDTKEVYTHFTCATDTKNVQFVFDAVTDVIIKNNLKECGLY
Sa growth 42C second temp: also measured in Sa growth 42C; calls as there; relative growth, %; measured here: growth at 30 °C;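 optical density after 20 h as mean of two plates; 100% = untreated growth and lower means inhibition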
Active calls of the source: *; . = no result given; & = joins results of further samples. Random draw from the library (roughly 0.83% active in at least one column).

SMILES	Sa growth 42C	Sa growth 42C second temp	HCMV UL50-53 inh	GIV-Gai inh
CC(C)c1ccc(CN(C(=O)c2nc(S(C)(=O)=O)ncc2Cl)C2CCS(=O)(=O)C2)cc1 (stereo unspecified)	42	28	.	103
CC1(C)CC(=O)C2=C(C1)Nc1ccccc1N(C(=S)NCc1ccco1)C2c1cccnc1 (stereo unspecified)	93	101	-3	107
CCOc1cc(C2C(C(=O)OC)=C(C)NC3=C2C(=O)CC(c2ccccc2)C3)cc(Br)c1O (stereo unspecified)	.	.	4	104
Cc1cc(C(F)(F)F)nn1CC(=O)N1CCCCC1	94	113	1	100
Cc1cc(C)c2c3c(sc2n1)C(=O)N(c1ccccc1C)CC(=O)N3	98	84	-3	97
O=C(c1ccccc1)C1C(=O)c2ccccc2C1=O	141	75	-38	97
CC(C)NC(=O)c1cnn2c3c(cnc12)CCCCCC3	.	.	-3	104
O=C(CCc1c[nH]c2ccccc12)Nc1cccnc1	80	89	-35	.
Cc1ccc2c(c1)N(CC(=O)NC1CCC(C)CC1)C(=O)c1cccnc1O2 (stereo unspecified)	86	75	-32	100
CCOc1ccc(N2C(=O)CC(Sc3nc4c(cc3C#N)CCCC4)C2=O)cc1 (stereo unspecified)	.	.	-16	105
COc1ccc(CCCc2nnc(SCC(=O)Nc3cc(C)ccc3C)o2)cc1	104	85	-23	108
O=C1CCC(C(=O)N2CCc3ccccc32)=NN1	94	95	-9	.

Full records, looked up by structure.
CC(C)c1ccc(CN(C(=O)c2nc(S(C)(=O)=O)ncc2Cl)C2CCS(=O)(=O)C2)cc1 (stereo unspecified) across the screens: Sa growth 42C: 42; Sa growth 42C second temp: 28; HCMV UL50-53 inh: .; GIV-Gai inh: 103
O=C(CCc1c[nH]c2ccccc12)Nc1cccnc1 across the screens: Sa growth 42C: 80; Sa growth 42C second temp: 89; HCMV UL50-53 inh: -35; GIV-Gai inh: .

The list goes on:
SMILES	Sa growth 42C	Sa growth 42C second temp	HCMV UL50-53 inh	GIV-Gai inh
Cc1ccc(C(=O)CN2C(=O)COc3ccccc3C2=O)cc1	.	.	22	111
O=c1[nH]c2ccc(S(=O)(=O)Nc3ccc4c(c3)OCO4)cc2[nH]c1=O	92	65	-2	102
CC1CCN(C(=O)CSc2nnc(Cc3cccn3C)n2-c2ccc(F)cc2)CC1	.	.	-4	102
Cc1ccc(NC(=O)CN2C(=O)CCSc3ccc(S(=O)(=O)N4CCCC4)cc32)cc1	105	86	.	105
O=C(NCc1ccccc1Cl)c1nnc(Cc2ccc(Cl)cc2)o1	111	89	-8	105
O=C(CSc1nc2ccccc2[nH]c1=O)Nc1ccccc1	106	107	-4	100
COc1ccc(N(C=O)/C=C2\Sc3ccccc3C2=O)cc1	101	77	-34	-15*
CCOC(=O)NC(=O)c1cn(CCc2ccncc2)c(=O)[nH]c1=O	108	86	-34	105
O=C(c1ccccc1O)N1N=C(c2ccc(Br)cc2)CC1(O)C(F)(F)F (stereo unspecified)	.	.	-11	107
CC(C)[C@H](NC(=O)c1ccccc1)C(=O)Nc1ccc2c(c1)OCO2	108	90	-13	.
Cc1cc2ncn(S(=O)(=O)c3ccc(S(=O)(=O)N(C)C)cc3)c2cc1C	106	97	-20	103
O=C(C1CCC1)N1CCN(c2ccccc2)CC1	80	98	16	107
Cc1cc2c(cc1S(=O)(=O)CCC(=O)NCCCc1ccccc1)OCC(=O)N2	.	.	-22	104
CC(C)C(=O)Nc1ccc(Sc2ccc(F)cc2)cc1	.	.	14	110
Cc1ccc(C(=O)OCC(=O)NCc2ccccc2Cl)s1	113	91	-6	.
CC(=O)NC(CC(=O)N1CCN(S(=O)(=O)c2ccc(C)cc2)CC1)c1ccccc1 (stereo unspecified)	77	97	-16	.
O=C(CN1c2ccc(F)cc2-c2ccccc2S1(=O)=O)Nc1ccc2c(c1)OCO2	.	.	-16	113
CC(Oc1ccc(Cl)cc1Cl)C(=O)N1CCC(C(N)=O)CC1 (stereo unspecified)	102	92	-3	.
O=c1[nH]c2ccccc2c(-c2ccccc2)c1Sc1nc2ccccc2o1	105	85	-22	.
CCOC(=O)c1cnn(-c2ccccc2)c1-c1ccccc1	.	.	6	103
CCOc1ccc(CNC(=O)COc2cc(=O)n(CC)c3ccccc23)cc1	101	68	.	94
Clc1ccccc1CSc1nncn1NCc1ccccc1	105	91	-8	103
COc1ccc(CCN2C(=O)CSC2=NC2CC2)cc1OC	91	91	-42	103
Cc1cccc(S(=O)(=O)NCc2csc(C)n2)c1	95	86	2	104

GIV-Gai inh: hit marks shown above.
molecule,Sa growth 42C second temp,GIV-Gai inh
COc1ccc(N(C=O)/C=C2\Sc3ccccc3C2=O)cc1,77,-15*

New compounds follow.
SMILES	Sa growth 42C	Sa growth 42C second temp	HCMV UL50-53 inh	GIV-Gai inh
O=C(NCCCn1ccnc1)c1cc2nc(-c3ccccc3)cc(-c3ccccc3)n2n1	109	91	.	99
Cc1ccccc1OCCn1c(-c2ccc(Cl)cc2)nc2ccccc2c1=O	105	86	-34	110
CCOc1ccccc1C1C(C(=O)OCCOC)=C(C)NC2=C1C(=O)CC(c1ccc(Cl)cc1)C2 (stereo unspecified)	.	.	-12	103
Cc1ccc(N2C(=O)Nc3ccc(Br)cc3C2(O)C(=O)N2CCN(c3ccccn3)CC2)cc1C (stereo unspecified)	108	58	-8	105
COc1ccc(Cn2c(=O)[nH]c3cc(C(=O)N4CCN(c5cc(C)ccc5C)CC4)ccc3c2=O)cc1	103	88	2	103
CN(Cc1ccccc1)S(=O)(=O)c1ccc2c(c1)NC(=O)CS2	.	.	3	112
Cc1cc(-c2ccc(C(C)C)cc2)n(-c2ccccn2)n1	58	72	-33	99
Cc1cccc(NC(=O)CSc2nsc(SCC(=O)Nc3cccc(C)c3)c2C#N)c1	93	123	4	.
CCc1ccccc1NC(=O)c1c(C(=O)Nc2ccc(C(=O)OC)cc2)sc2nc(C)cc(=O)n12	.	.	-6	107
O=C(Nc1cccc(-c2noc(C3CCC3)n2)c1)C1CC(=O)N(c2cccc(Cl)c2)C1 (stereo unspecified)	.	.	-20	102
COC(CNC(=O)c1ccc(CS(=O)(=O)c2ccccc2)o1)OC	101	94	-10	104
COc1ccc(CCNC(=O)C(C)n2c(=O)cc(C(F)(F)F)c3c(C)nn(C)c32)cc1OC (stereo unspecified)	91	87	.	97
Cc1ccc(S(=O)(=O)N2CCC[C@H]2C(=O)OCN2C(=O)c3ccccc3C2=O)cc1	94	94	-6	.
CN1CCc2c(sc3[nH]c(=O)c4c(=S)nc(-c5ccco5)[nH]c4c23)C1	95	96	-93	104
COc1ccc(C(=O)NCc2ccc3c(c2)CCN3C(=O)c2ccc(F)cc2)cc1	111	81	.	103
Cc1ccc(-n2c(O)c(/C=N/c3ccnn3Cc3ccco3)c3ccccc3c2=O)cc1	109	104	-8	.
Cc1ccc2c(CN3C(=O)CCC3=O)cc(=O)oc2c1	100	98	-19	.
CCOC(=O)c1nc(Nc2ccc(Cl)cc2C)c2ccccc2n1	.	.	-30	107
O=C1c2ccccc2C(O)(Cc2ccccc2)N1Cc1ccccc1 (stereo unspecified)	105	73	-8	103
O=C1CC(c2ccc(Cl)cc2)N=C(NC(=O)c2ccc3c(c2)OCO3)N1 (stereo unspecified)	100	96	-14	106
CC(C)NC(=O)c1cc(-c2ccccc2)on1	128	92	4	101
O=C(c1ccc(-c2cccs2)s1)N1CCOCC1	93	91	-102	101
Cc1oc(-c2ccc(C(=O)NCCC(C)C)cc2)nc1CN1CCc2ccccc21	86	88	.	103
COc1ccc(N=C2C(=O)Nc3ccc(Br)cc32)cc1	85	75	-34	102
C#CCOc1ccc(Cl)c2cccnc12	85	94	-44	98
Nc1nonc1-c1ccc(Cl)cc1	112	76	-9	100
Cc1ccc(NC(=O)Nc2ccc3c(c2)N(C)C(=O)c2ccccc2S3)c(C)c1	99	92	15	99
Cc1cc(SCC(=O)OCc2c(C)noc2C)c(C)cc1Br	117	92	-31	.
O=C(CN1Cc2ccccc2C1=O)Nc1cnc2ccccc2c1	76	84	-25&3	100&102
Cc1nn2c(=S)[nH]nc2[nH]c1=O	86	87	-48	.
CCOC(=O)c1c(N)n(-c2ccc(CC)cc2)c2nc3ccccc3nc12	94	83	-37	106
COc1cccc(C(=O)NC2CC(C)(C)NC(C)(C)C2)c1	113	83	.	95
O=C(O)CSC12CC3CC(CC(C3)C1)C2	119	94	.	99
FC(F)(F)c1ccncc1-c1ncc(-c2ccccc2)o1	115	68	4	103
CCOc1cc(CNCCSc2nnnn2C)cc(Cl)c1OCc1ccccc1Cl	.	.	-25	98
Cc1ccc(CCNC(=O)c2cc(Nc3ccc(C)c(C)c3)nc3ccccc23)cc1	142	104	.	106
O=C(OCC(=O)N1CCCCCC1)c1c(Cl)cccc1Cl	93	88	-8	.
N#Cc1cnc(Nc2nc3ccccc3o2)nc1-c1ccccc1	97	78	-21	103
O=C(c1ccccc1)c1ccc2nc(NCC3CCCO3)c3nncn3c2c1 (stereo unspecified)	100	93	2	108
CN(Cc1ccccc1)C(=O)c1cc(-c2ccccc2O)on1	101	88	-3	100
CCC(=O)Nc1c(-c2ccc(OC)cc2)c(=O)c2ccccc2n1C	104	101	16	110
FC(F)(F)c1cc(-c2ccncc2)nc2cc(-c3ccc(Cl)cc3)nn12	.	.	-21	100
Cc1ccccc1NC(=O)c1c(NC(=O)c2ccco2)sc2c1CCC(C(C)(C)C)C2 (stereo unspecified)	105	95	-7	111
O/N=C/C1=C(Cl)c2cc(Cl)ccc2OC1	99	99	-1	99
COc1ccc(S(=O)(=O)Nc2cc(-c3cn4cccc(C)c4n3)ccc2C)cc1C	106	85	-27	96
CC1CCc2c(sc3nnn(Cc4ccccc4Cl)c(=O)c23)C1 (stereo unspecified)	105	88	-41	104
CCCCOc1ccc(C(=O)Nc2cc(-c3ccccc3)no2)cc1	112	103	20	108
COc1ccc(C(=O)NC(C)C(c2cccs2)N2CCN(c3ccccc3F)CC2)cc1OC (stereo unspecified)	111	83	.	101
COC(=O)C(NC(=O)c1ccc(Cl)cc1)C(F)(F)F (stereo unspecified)	104	97	0	92
CC[n+]1cccc(-c2nc3ccccc3o2)c1	94	102	.	98

Copied from the entries so far for reference:
SMILES	Sa growth 42C	Sa growth 42C second temp	HCMV UL50-53 inh	GIV-Gai inh
CCCCOc1ccc(C(=O)Nc2cc(-c3ccccc3)no2)cc1	112	103	20	108
COc1ccc(C(=O)NC(C)C(c2cccs2)N2CCN(c3ccccc3F)CC2)cc1OC (stereo unspecified)	111	83	.	101
COC(=O)C(NC(=O)c1ccc(Cl)cc1)C(F)(F)F (stereo unspecified)	104	97	0	92
CC[n+]1cccc(-c2nc3ccccc3o2)c1	94	102	.	98
